Screening results from PubChem.
GIV-Gai inh – inhibitors of GIV peptide binding to Galpha-i3, primary screen, biochemical, fluorescence polarization, FITC-GIV GBA peptide, rat Galphai3. Guanine nucleotide-binding protein G(i) subunit alpha-3 (Rattus norvegicus), P08753. 90 min; stronger effect = lower value; scaled: aluminum fluoride 0%, vehicle 100%. percent of control (FP), % (no concentration beside the values). 210,000 tested, 0.42% active;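 active = replicate mean at 85% of control or lower, very high polarization wells dropped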;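 also: wells of about 15 µL received 100 nL stock; the first replicate is given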
Target sequence (P08753 whole entry, looked up): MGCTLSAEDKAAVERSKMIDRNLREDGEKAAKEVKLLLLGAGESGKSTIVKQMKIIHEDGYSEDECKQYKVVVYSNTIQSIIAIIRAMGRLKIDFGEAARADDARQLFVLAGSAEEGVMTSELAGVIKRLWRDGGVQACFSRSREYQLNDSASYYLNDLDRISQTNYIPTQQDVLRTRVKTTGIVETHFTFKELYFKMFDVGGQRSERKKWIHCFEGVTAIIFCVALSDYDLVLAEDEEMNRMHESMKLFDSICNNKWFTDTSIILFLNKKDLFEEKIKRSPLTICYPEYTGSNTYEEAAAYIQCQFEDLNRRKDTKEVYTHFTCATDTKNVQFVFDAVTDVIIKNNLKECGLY
Starred values were filed as active, the others as inactive. Only part of the results is shown; count on the stated rates, not on these rows.

GIV-Gai inh | SMILES
110 | CCOC(=O)C1=CC2(SC=C(C(=O)OCC)S2)C2=C(S1)C(C)(C)N(C(=O)Cc1ccccc1)c1ccc(OCC)cc12 (stereo not drawn)
108 | O=C(CCCCCn1c(=S)[nH]c2ccc(Br)cc2c1=O)NC1CCN(Cc2ccccc2)CC1
102 | COc1ccc(C2C(C(=O)OCC3CCCO3)=C(C)NC3=C2C(=O)CC(c2cccs2)C3)c(OC)c1OC (stereo not drawn)
114 | Cn1nnnc1SCC(=O)Nc1ccc2nc(SCC(=O)Nc3ccccc3)sc2c1
109 | CC(=O)N1C(=S)NC(=O)/C1=C/c1cc2cc(C)ccc2nc1N1CCOCC1
113 | CCCc1cc(C2CCCN2Cc2ccccc2OC(C)C)no1 (stereo not drawn)
105 | CCCNC(=O)c1ccc2c(=O)n(CC3CCCO3)c(SCc3ccccc3Cl)nc2c1 (stereo not drawn)
102 | CCS(=O)(=O)N1CCCN(C(=O)NC(C)(C)C)CC1
110 | O=C(Nc1ccccc1-c1ccc2ccccc2n1)c1ccc(F)cc1
107 | CCN1CCN(CC2CCN(S(=O)(=O)c3ccc4c(c3)CCC4)CC2)CC1
116 | CC(C)(C)C1CCc2c(sc3c2C(=O)NC(c2cc(Br)cc(Br)c2O)N3)C1 (stereo not drawn)
108 | CCc1ccc(-c2[nH]ncc2CN2CCCC2c2cc(CC)no2)cc1 (stereo not drawn)
101 | COc1ccc(-n2c(=S)[nH]c3cc(C(=O)NCc4ccc5c(c4)OCO5)ccc3c2=O)c(OC)c1
108 | O=C(NC1CCCC1)C1CCN(c2cncnc2N2CCCCC2)CC1
101 | CCOc1cccc2c1OC(c1cc(OC)ccc1OC)N1N=C(c3ccco3)CC21 (stereo not drawn)

Among those listed so far, 2 have a thiophene ring, fused or not.
GIV-Gai inh | SMILES
102 | COc1ccc(C2C(C(=O)OCC3CCCO3)=C(C)NC3=C2C(=O)CC(c2cccs2)C3)c(OC)c1OC (stereo not drawn)
116 | CC(C)(C)C1CCc2c(sc3c2C(=O)NC(c2cc(Br)cc(Br)c2O)N3)C1 (stereo not drawn)

Next structures follow:
GIV-Gai inh | SMILES
109 | Cc1ccc2c(c1Br)C1(C(=O)N2)C(C#N)=C(N)Oc2n[nH]c(C(C)C)c21 (stereo not drawn)
109 | CC(=O)c1c(C)oc2ccc(N(C(=O)c3ccccc3)S(=O)(=O)c3cccc([N+](=O)[O-])c3)cc12
113 | CCN(CC)CCNC(=O)c1ccc(NC(=O)c2ccc3c(=O)n(Cc4ccc5c(c4)OCO5)c(=S)[nH]c3c2)cc1
107 | Cc1nc(C2CCCN(Cc3ccco3)C2)n[nH]1 (stereo not drawn)
104 | CCOc1ccc(C2=NN3C(C2)c2cccc(OCC)c2OC3c2cc(OC)c(OC)c(OC)c2)cc1 (stereo not drawn)
101 | O=C(CCn1c(SCc2cc(=O)n3cc(Cl)ccc3n2)nc2ccccc2c1=O)N1CCN(c2ccccc2)CC1
103 | Cc1cc(C2CCCN2C(=O)c2c(-c3ccccc3Cl)noc2C)no1 (stereo not drawn)
104 | CCn1cc(S(=O)(=O)N2CCC(CN3CCCC(C)C3)CC2)cn1 (stereo not drawn)
99 | Cc1ccc(C(=O)N2CCC(c3ccncc3)CC2)cc1
108 | CCOC(=O)c1c(C)oc2ccc(N(C(C)=O)S(=O)(=O)c3ccc(CC)cc3)cc12
112 | CC(=O)C1=NN(c2ccccc2)C(c2ccc(N(C)C)cc2)N1c1ccc(Cl)c(Cl)c1 (stereo not drawn)
99 | Clc1ccc(CSc2nc3ccccc3n3nnnc23)cc1
105 | CCn1c(C)nnc1SCc1nc(-c2ccccc2)oc1C
116 | COC(=O)c1ccc(NC(=O)C2CC(=O)N(CCc3ccc(OC)c(OC)c3)C(=Nc3ccc(OC)cc3)S2)cc1 (stereo not drawn)
106 | O=S(=O)(c1cccc(F)c1)N1CCN(c2ncnc3c2nnn3-c2ccc(F)cc2)CC1
108 | O=C(NCCC1=CCCCC1)c1ccc(-c2ccc(F)cc2)nc1
125 | O=C1/C(=C/c2ccc([N+](=O)[O-])cc2)C=C(c2ccccc2)N1c1ccccc1O
111 | CN(C)C1c2cccc3cccc(c23)C1NS(=O)(=O)c1ccccc1 (stereo not drawn)
103 | O=C(NC1CCCC1)C1CCN(c2ccc3cc(S(=O)(=O)N4CCCCC4)ccc3n2)CC1
106 | COC(=O)C1C(=O)NC(SCC(=O)Nc2cccc(C(C)=O)c2)=C(C#N)C1c1ccc(Cl)cc1 (stereo not drawn)
101 | CCCN(CCC)S(=O)(=O)c1cc(-c2nc(C)c(C)s2)sc1C
97 | CN1CCN(C(=O)C2(c3ccccc3F)CC2)CC1
111 | COC(=O)c1cc(NC(=O)c2cc3cc(OC)ccc3oc2=O)cc(C(=O)OC)c1
97 | O=S(=O)(c1ccc(F)cc1F)N1CCN(c2ncnc3c2nnn3-c2cccc(F)c2)CC1
106 | CCNc1cc(C)nc(Nc2ccc(NC(=O)C(C)C)cc2)n1
100 | Cn1nc(-c2nc(C3CC3)no2)c2c1CCN(C(=O)c1ccsc1)C2
107 | O=C(c1cc2c(s1)CCCC2)N1CCc2[nH]cnc2C12CCCCC2
100 | CC(=O)C1=C(C)OC(N)=C(C#N)C1c1cccs1 (stereo not drawn)
104 | CC(=O)Nc1ccc(-c2noc(C3CCCN(C(=O)c4cccc(Cl)c4)C3)n2)cc1 (stereo not drawn)
118 | CCOC(=O)c1cccc(N2C(=O)C3C4c5ccccc5C(CC)(c5ccccc54)C3C2=O)c1 (stereo not drawn)
95 | CCc1nc(-c2csc(S(=O)(=O)NCc3ccc(Br)cc3)c2)no1
117 | COc1cc(C(=O)Nc2cc(C(=O)NCC(C)C)ccc2N2CC3CC(C2)c2cccc(=O)n2C3)cc(OC)c1OC (stereo not drawn)
100 | Cc1[nH]c(C)c(S(=O)(=O)N2CCN(C)CC2)c1-c1nnc(C2CCC2)o1
100 | CCN1C2=NCCN2c2ccccc21
106 | CC(C)CCNC(=O)N1CCCC1c1cc(C(C)C)no1 (stereo not drawn)
109 | Ic1ccc(-c2nc3ccccc3nc2-c2ccc(I)cc2)cc1
105 | CCc1ccc(-c2ccc(=O)n(CCc3nc(-c4ccc5c(c4)OCO5)no3)n2)cc1
104 | Cc1cc(-c2csc(S(=O)(=O)NCCCN3CCN(Cc4ccccc4)CC3)c2)on1
115 | S=C1NC2(CCCCCCC2)NN1c1ccc(Cl)cc1
104 | Cn1nc(-c2nc(-c3ccccc3)no2)c2c1CCN(S(=O)(=O)c1ccc(F)cc1)C2
102 | Cc1csc(-c2cc(S(=O)(=O)NCC3CC3)cn2CC(=O)N2CCCCC2)n1
112 | Cc1nc(CN2C(=O)COc3ccc(S(=O)(=O)NCc4cccnc4)cc32)no1
101 | COc1ccccc1N1C(=O)C2C3c4ccccc4C(c4ccccc43)C2C1=O (stereo not drawn)
108 | COC(=O)C1C(=O)NC(SCC(=O)Nc2ccc(C)c(C)c2)=C(C#N)C1c1ccccc1F (stereo not drawn)
106 | O=C(CCc1nc(-c2ccc(S(=O)(=O)N3CCOCC3)cc2)no1)Nc1nccs1

Reformatted: 4 of the compounds above.
Structure: S=C1NC2(CCCCCCC2)NN1c1ccc(Cl)cc1
- GIV-Gai inh: 115
Structure: Cn1nc(-c2nc(-c3ccccc3)no2)c2c1CCN(S(=O)(=O)c1ccc(F)cc1)C2
- GIV-Gai inh: 104
Structure: Cc1csc(-c2cc(S(=O)(=O)NCC3CC3)cn2CC(=O)N2CCCCC2)n1
- GIV-Gai inh: 102
Structure: Cc1nc(CN2C(=O)COc3ccc(S(=O)(=O)NCc4cccnc4)cc32)no1
- GIV-Gai inh: 112

Continuation.
GIV-Gai inh | SMILES
106 | N#CC1(C#N)[C@H](c2ccccc2I)[C@@H](C(=O)c2ccccc2)N2c3ccccc3C=C[C@@H]21
100 | Cc1ccccc1C1CC(=O)Nc2c1c(C)nn2-c1ccc2nnc(C)n2n1 (stereo not drawn)
112 | O=CC12c3ccccc3C(c3ccccc31)C1C(=O)N(c3ccc(C(=O)O)cc3)C(=O)C12 (stereo not drawn)
108 | COC(=O)c1ccccc1NC(=O)CSc1nc2ccccc2nc1Cc1cccc(OC)c1
123 | CC(=O)[C@H]1[C@H](c2ccc(Cl)cc2)C(C#N)(C#N)[C@@H]2c3ccccc3C=CN21
106 | CCOC(=O)C1=C(C)N=c2s/c(=C\c3cccn3-c3cccc([N+](=O)[O-])c3)c(=O)n2C1c1ccc(OC)c(OC)c1 (stereo not drawn)
102 | Cc1cc(C)cc(S(=O)(=O)N2CSC[C@@H]2C(=O)NCc2csc(C)n2)c1
98 | CCC(C)NC(=O)Cn1ncc2c(c1=O)N(CC)C(=O)CS2 (stereo not drawn)
115 | CC(C)c1cc(C2CCCN2Cc2ccc(Br)s2)no1 (stereo not drawn)
105 | CC(=O)N1C(=O)CC(c2ccccc2)N(C(C)=O)c2ccccc21 (stereo not drawn)
106 | Cc1[nH]nc(-c2c(C)sc(C)c2S(=O)(=O)NC2CCCc3ccccc32)c1C (stereo not drawn)
99 | Cc1ccc(Nc2nc(-c3ccc4c(c3)OCO4)cs2)nc1
98 | O=C(CSc1n[nH]c(-c2ccco2)n1)c1ccc(F)cc1
113 | O=C(CN1C2=NCCCN2c2ccccc21)c1ccc(O)cc1
98 | Cc1cccc(CSc2ccc(-n3nc4c(c3C)CCC4)nn2)c1
107 | CC(C)OCCCNc1ncnc2c1c(-c1ccccc1)cn2-c1ccc(Br)cc1
122 | COc1cc(C2C(C#N)=C(N)Oc3n[nH]c(-c4ccc(C)cc4)c32)cc(OC)c1OC (stereo not drawn)
109 | CCOC(=O)c1nc2cc3n(c(CC(C)C)c-2c1C)C(C)C(C)=C3C (stereo not drawn)
107 | CCCc1[nH]nc2c1C1(C(=O)N(CC(=O)O)c3ccccc31)C(C#N)=C(N)O2 (stereo not drawn)
105 | CC(C)NS(=O)(=O)c1ccc(Cl)c(-c2nnc(-c3ccccc3)o2)c1
108 | Cc1nc(-c2cc(S(=O)(=O)Nc3ccc(F)c(Cl)c3)c(C)s2)cs1
103 | CCCN1C(=O)C2(CCOCC2)Nc2ccccc21
107 | CC(C)(C)c1csc(-c2csc(S(=O)(=O)N3CCCCC3)c2)n1
98 | CCC(=O)Nc1ccc(S(=O)(=O)N2CCC[C@@H]2C(=O)NCc2csc(C)n2)cc1
110 | O=C(c1ccccc1)N1CCn2c3c(c4cc(C5CCCCC5)ccc42)CCCC31 (stereo not drawn)
105 | CC1CCN(C(=O)c2csc(N3CCCCC3)n2)CC1
107 | CCC(Sc1nc2ccccc2c(=O)n1CCCC(=O)NCc1ccco1)C(=O)Nc1ccc2c(c1)OCO2 (stereo not drawn)
103 | CCCCN(CCCC)CC(O)CN(c1ccccc1OC)S(=O)(=O)c1ccccc1 (stereo not drawn)
110 | CC(C)(C)c1csc(-c2csc(S(=O)(=O)Nc3ccc(Cl)cc3F)c2)n1
98 | CCn1nc(C)c(CCNC(=O)Cn2c(=O)c(=O)n(CC)c3ncccc32)c1C

Reformatted: five of the compounds above
Compound	GIV-Gai inh
CC1CCN(C(=O)c2csc(N3CCCCC3)n2)CC1	105
CCCCN(CCCC)CC(O)CN(c1ccccc1OC)S(=O)(=O)c1ccccc1 (stereo not drawn)	103
CC(C)(C)c1csc(-c2csc(S(=O)(=O)N3CCCCC3)c2)n1	107
CC(C)NS(=O)(=O)c1ccc(Cl)c(-c2nnc(-c3ccccc3)o2)c1	105
CCC(=O)Nc1ccc(S(=O)(=O)N2CCC[C@@H]2C(=O)NCc2csc(C)n2)cc1	98

More structures
GIV-Gai inh | SMILES
106 | COc1ccc(C(=O)Nc2cnc3oc(-c4ccccc4OC(C)C)nn3c2=O)cc1
104 | O=C(Nc1cnn(-c2ncncc2N2CCCCC2)c1)C1CC1
101 | COC(=O)CCCCCNC(=O)C1OC2OC(C)(C)OC2C2OC(C)(C)OC12 (stereo not drawn)
104 | Cc1cc(C)n(CC(O)Cn2c(-c3ccccc3)c(-c3ccccc3)c3ccc4ccccc4c32)n1 (stereo not drawn)
98 | Cc1ccccc1-n1c(SCC(=O)c2c[nH]c3ccccc23)nnc1-c1cccnc1
106 | O=C(c1ccccc1Br)N1CCc2c([nH]c3ccccc23)C1
105 | CC1CCCC(C)N1Cc1c(O)ccc2c3c(c(=O)oc12)CCC3 (stereo not drawn)
100 | CC(C)Oc1ccc(NC(=O)C2CCCN(S(=O)(=O)Cc3ccccc3)C2)cc1 (stereo not drawn)
97 | COc1cc(OC)c(NC(=O)C2Oc3ccccc3NC2=O)cc1Cl (stereo not drawn)
109 | COc1cc(OC)cc(C(=O)N2CCN(Cc3nc4cc(C(=O)N5CCCC5)ccc4n3C)CC2)c1
109 | CCOC(=O)C1=CN(Cc2ccc(F)cc2)C=C(C(=O)OCC)C1c1cc(OCC)c(O)c([N+](=O)[O-])c1
97 | CCOC(=O)c1cc(CSc2nnc3c4ccccc4nc(-c4ccc(OC)cc4)n23)on1
109 | COc1cccc(-c2cn3c4c(=O)n(C)c(=O)n(C)c4nc3n2-c2ccc(C)c(C)c2)c1
107 | Cc1ccc(-c2noc3ncnc(NCC4CCCO4)c23)cc1 (stereo not drawn)
108 | COc1ccc(N2CCN(C(=O)c3sc4ncn(CC(=O)N5CCCCC5C)c(=O)c4c3C)CC2)cc1 (stereo not drawn)
103 | N#Cc1ccc(-c2cccs2)nc1SCC(=O)c1ccc(Cl)cc1
115 | COc1cc(-c2c(C#N)c(N)n3c(nc4ccccc43)c2C#N)ccc1OCCCC#N
100 | COc1ccc(C2C(C#N)=C(N)Oc3n[nH]c(C)c32)cc1COc1ccccc1Cl (stereo not drawn)
104 | COc1ccc(C2Nc3ccccc3C(=O)N2Cc2ccccc2)cc1CN1CCOCC1 (stereo not drawn)
108 | CC(=O)NC1C(Oc2ccc(C=O)cc2)OC(COC(C)=O)C(OC(C)=O)C1OC(C)=O (stereo not drawn)
